Assay outcomes as filed in PubChem.
NPSR antag – blocks cAMP signaling of the human neuropeptide S receptor; Potency, µM (series often up to 38.3 µM), inactives show at the highest dose activity change, negative = inhibition, usual class: inhibitors; CHO-NPSR cells, cAMP TR-FRET, antagonist mode; actives 1% (n = 220,000); AID 1461; also: % is scaled to controls: 0 for no effect and ±100 for the full control effect; nearly all actives have a fitted effect of over 50% in size; many of its hits are not listed in these tables
Target sequence (Q6W5P4 whole entry, looked up): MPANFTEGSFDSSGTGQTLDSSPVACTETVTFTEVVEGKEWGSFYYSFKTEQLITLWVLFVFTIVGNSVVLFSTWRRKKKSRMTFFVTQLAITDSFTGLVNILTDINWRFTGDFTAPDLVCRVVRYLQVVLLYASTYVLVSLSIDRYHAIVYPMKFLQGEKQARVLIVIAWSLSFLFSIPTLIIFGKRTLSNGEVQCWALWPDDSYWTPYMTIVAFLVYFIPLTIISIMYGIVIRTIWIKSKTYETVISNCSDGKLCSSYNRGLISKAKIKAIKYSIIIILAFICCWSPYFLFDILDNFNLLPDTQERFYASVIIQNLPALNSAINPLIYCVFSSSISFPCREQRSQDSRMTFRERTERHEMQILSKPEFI
HttQ103 aggreg – inhibitors of mutant huntingtin aggregate formation in PC12 cells; actives 1.1% (n = 220,000); Potency, µM (titrated, usually from 46.1 µM), inactives show at the highest dose activity change, negative = inhibition, actives largely listed as inhibitors; PC12 HttQ103-GFP aggregates, Acumen cytometry, 40 h; also: % is scaled to controls: 0 for no effect and ±100 for the full control effect; nearly all actives have a fitted effect of over 60% in size
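PC12 cells with ecdysone-inducible HTT exon1 Q103-GFP, induced by 100 nM tebufenozide, given compounds in a concentration series. GFP aggregates (1–25 um, 6 SD above background) counted in lysates by laser-scanning cytometry, 488 nm excitation.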
Epigenetic reg – epigenetic control regulation, reporter derepression; AID 1865; actives 0.2% (n = 280,000); Potency, µM (top dose mostly 53.9 µM), without a hit: at the top dose GFP activation, actives largely listed as activators; murine LDR cells, GFP reporter derepression, 30 h; also: % of control where 0% means no effect; nearly all actives have a fitted effect of over 60% in size
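Readout is the number of GFP-expressing murine LDR cells, counted by cytometry following washing. Cells were treated with compound for 30 h at 37 C; the stably integrated CMV-GFP locus is normally silent.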
An asterisk follows results filed as active; . = no result given; & = joins results of further samples; [ ] = remark or other dose. Calls follow the shape of the dose curve; as a rule, active = well fitted curve in the direction sought with a large enough effect; inconclusive = small, poorly fitted or top-dose-only effect, or another doubt; inactive = no such curve, though single readings can be large; an effect the other way counts as inactive or inconclusive. Potency is read from the fitted curve at half-maximal effect. Some of the compounds tested; the hit share may differ from the screen's.

SMILES	NPSR antag	HttQ103 aggreg	Epigenetic reg
NCCC[C@@H](N)C(=O)O	.	.	0.0%
CCN1CCCC1CNC(=O)c1cc(S(N)(=O)=O)ccc1OC (centres undefined)	-11.6%[46.1 µM]	.	2.2%&7.4%&1.1%
CN1C2CC(OC(=O)C(CO)c3ccccc3)CC1C1OC12 (centres undefined)	0.0%[46.1 µM]	.	-1.2%
CCC(C)(C)C(=O)OC1CC(C)C=C2C=CC(C)C(CCC3CC(O)CC(=O)O3)C21 (centres undefined)	.	.	-1.3%
O=C(O)C[C@@H](O)C(=O)O	19.2%	7.3%	-1.1%
CN1CCCC1c1cccnc1 (centres undefined)	.	.	0.0%
COC(=O)[C@@H]1[C@H]2C[C@H]3c4[nH]c5ccccc5c4CCN3C[C@@H]2CC[C@@H]1O	-17.6%[46.1 µM]	.	-0.1%
CC(C)(C)NC(=O)[C@H]1CN(Cc2cccnc2)CCN1C[C@@H](O)C[C@@H](Cc1ccccc1)C(=O)N[C@H]1c2ccccc2C[C@H]1O	.	15.5%	2.2%
C[C@@H]1C[C@H]2[C@@H]3C[C@H](F)C4=CC(=O)C=C[C@@]4(C)[C@]3(F)[C@H](O)C[C@]2(C)[C@@]1(O)C(=O)CO	.	15.3%[20.6 µM]	-0.4%[16.9 µM]
CCOC(=O)[C@H](CCc1ccccc1)N[C@@H](C)C(=O)N1[C@H](C(=O)O)C[C@H]2CCC[C@@H]21	.	4.5%	1.0%[16.9 µM]

3 entries out of the list above, arranged by the value under HttQ103 aggreg, rising.
structure | NPSR antag | HttQ103 aggreg
CCOC(=O)[C@H](CCc1ccccc1)N[C@@H](C)C(=O)N1[C@H](C(=O)O)C[C@H]2CCC[C@@H]21 | . | 4.5%
O=C(O)C[C@@H](O)C(=O)O | 19.2% | 7.3%
CC(C)(C)NC(=O)[C@H]1CN(Cc2cccnc2)CCN1C[C@@H](O)C[C@@H](Cc1ccccc1)C(=O)N[C@H]1c2ccccc2C[C@H]1O | . | 15.5%

As entered above.
Epigenetic reg with `CN1CCCC1c1cccnc1` (centres undefined) is entered as 0.0%
Epigenetic reg with `CN1C2CC(OC(=O)C(CO)c3ccccc3)CC1C1OC12` (centres undefined) is entered as -1.2%
Epigenetic reg with `CCC(C)(C)C(=O)OC1CC(C)C=C2C=CC(C)C(CCC3CC(O)CC(=O)O3)C21` (centres undefined) is entered as -1.3%
HttQ103 aggreg with `O=C(O)C[C@@H](O)C(=O)O` is entered as 7.3%
Epigenetic reg with `CCOC(=O)[C@H](CCc1ccccc1)N[C@@H](C)C(=O)N1[C@H](C(=O)O)C[C@H]2CCC[C@@H]21` is entered as 1.0%[16.9 µM]

Next section.
SMILES	NPSR antag	HttQ103 aggreg	Epigenetic reg
COC(=O)[C@H]1[C@H]2CC3c4[nH]c5ccccc5c4CCN3C[C@@H]2CC[C@@H]1O (some centres undefined)	.	-13.4%	0.3%&4.0%
CN1C2CCC1CC(OC(=O)C(CO)c1ccccc1)C2 (centres undefined)	-3.9%&6.3%[46.1 µM]	.	-0.2%&1.1%&1.1%&-3.0%&1.1%&1.1%&3.5%
CCC[C@H]1C[C@H](C(=O)N[C@@H]([C@H]2O[C@@H](SC)[C@@H](O)[C@@H](O)[C@@H]2O)[C@H](C)Cl)N(C)C1	.	14.5%	1.4%[16.9 µM]
NCCS(=O)(=O)O	6.5%[46.1 µM]	1.9%	0.0%&2.1%&1.4%
CCC(C)(C)C(=O)O[C@@H]1C[C@H](C)C=C2C=C[C@H](C)[C@@H](CC[C@H]3C[C@@H](O)CC(=O)O3)[C@H]21	.	-35.9%[20.6 µM]	3.8%[16.9 µM]
C[C@@H]1C[C@H]2[C@@H]3C[C@H](F)C4=CC(=O)C=C[C@]4(C)[C@@]3(F)[C@@H](O)C[C@]2(C)[C@@]1(O)C(=O)CO	-54.5%	17.7%	-0.5%
N[C@H](CC(=O)O)C(=O)O	.	0.5%	-1.6%&2.1%&0.4%

One compound at a time, from the list above. Order of screens: NPSR antag, HttQ103 aggreg, Epigenetic reg
COC(=O)[C@@H]1[C@H]2C[C@H]3c4[nH]c5ccccc5c4CCN3C[C@@H]2CC[C@@H]1O is entered as -17.6%[46.1 µM], ., -0.1%
C[C@@H]1C[C@H]2[C@@H]3C[C@H](F)C4=CC(=O)C=C[C@]4(C)[C@@]3(F)[C@@H](O)C[C@]2(C)[C@@]1(O)C(=O)CO is entered as -54.5%, 17.7%, -0.5%
